# ugtP null kill – compounds lethal to S. aureus RN4220 ugtP deletion mutant | OD600 growth, 16 h; some inactives read as strong as hits | growth inhibition, % (test concentration not listed) | 330,000 tested, 0.54% active | AID 1259309;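 active means z-score under -3 and OD600 up to 0.15 on both plates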;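 further: plate controls were untreated wells for no effect and antibiotic for full effect; wells of about 80 µL received 100 nL stock; the first replicate is given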
# Sa RN4220 lethal – S. aureus RN4220 growth inhibition; inhibition, % (no concentration beside the values); OD600, 16 h; 330,000 tested, 0.33% active; AID 1259311;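 active means z-score of -3 or lower and OD600 up to 0.18 on both plates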;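 further: plate controls were untreated cells for no effect and reference antibiotic for full effect; stock transfer was 100 nL into about 80 µL; one replicate is shown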
# BJeLR lethal – BJeLR cell viability loss. BJeLR (HRASV12) viability, CellTiter-Glo ATP luminescence, 48 h; reference of the scale not given here. inhibition, % (no concentration beside the values). 300,000 tested, 0.17% active. AID 1554;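 active means replicate mean above 50%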;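 further: 50 nL library stock added to about 25 µL; numbers are from one replicate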
# PrP UTR inh – suppresses PrP 5' UTR mRNA reporter expression. 340,000 tested, 0.35% active. AID 488862. cell-based PrP 5' UTR mRNA reporter, plate reader. inhibition, % (no concentration beside the values);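 active means every replicate at 50% or more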;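 further: 0 = median of the neutral control wells; tested in H4 reporter cells; numbers are from one replicate; inactives centre near -14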
# Mtb hypoxia inh – inhibitors of hypoxia-regulated fluorescent reporter in Mycobacterium tuberculosis. M. tuberculosis hypoxia-regulated fluorescent reporter, fluorescence. fluorescence inhibition, % (concentration not given with the values). 300,000 tested, 0.1% active;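 active means 35 to 45% if threefold the growth effect, above 45% if 1.5-fold the growth effect; inactive means the rest, general growth blockers included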;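 further: wells of about 50 µL received 100 nL stock; 0% = vehicle wells and 100% = reference inhibitor wells; whole bacteria with a GFP reporter of the hypoxia response; strong numbers were not always called active; many hits fall short of the cut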
# Bead autofluor – flagged as autofluorescent in microsphere protease counterscreen. compound autofluorescence counterscreen, microsphere flow cytometry; hits give high values. fluorescence intensity (test concentration not listed). 360,000 tested, 3.1% active;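 active means at least 3 SD above the mean of all compounds, about 16000 in these data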;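 further: 100 nL of 1 mM stock went into each well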
# Mtb hypoxia inh growth – second read-out of Mtb hypoxia inh, no call of its own (marks repeat the call); growth inhibition, %; measured here: M. tuberculosis growth (absorbance);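 0% = vehicle and 100% = reference antibiotic; read after six days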
# * = called active by the depositor; nt = not tested or not shown.
structure	PrP UTR inh	Mtb hypoxia inh growth	Mtb hypoxia inh	Sa RN4220 lethal	BJeLR lethal	Bead autofluor	ugtP null kill
COc1cccc(N/C=C/C(=O)c2ccc(OC)c(OC)c2)c1	-61	-14	1	2.5	-7	4410	-1
CCCCCOc1ccc(C(=O)CCC(=O)Nc2ccc(NC(C)=O)cc2)cc1	-13	4	10	3.5	-8	4300	2
NC(=O)c1cc(S(=O)(=O)NCCc2ccccc2)cs1	-5	3	2	-0.9	-2	5591	-4
CCc1ccc(NC(=O)N(Cc2ccco2)C(C)c2cccs2)cc1 (stereo unspecified)	-23	-2	4	4.8	4	8046	30
CNS(=O)(=O)c1cccc(C(=O)OCC(=O)NC(C)CCc2ccccc2)c1 (stereo unspecified)	-22	0	2	1.4	-5	3771	8
CC1CC2C3CC(F)C4=CC(=O)C=C[C@]4(C)[C@@]3(Cl)C(O)C[C@]2(C)C1C(=O)COC(=O)C(C)(C)C (stereo partly specified)	nt	-3	1	1.4	nt	nt	-7
COc1ccc(NC(=O)CCc2ccccc2)cc1NC(=O)c1ccco1	-14	8	2	1.2	-2	19700*	5
Cc1nn(C)c(C)c1CN(C)S(=O)(=O)c1ccc2ccccc2c1	-11	3	2	6.4	nt	4657	1
CCOc1nc(Nc2ccc([N+](=O)[O-])cc2)nc(NC(C)(C)C)n1	-9	4	9	-2.6	6	2182	-40
Cc1cc(C(=O)N/N=C2\CC(=O)c3ccccc32)c(C)n1-c1ccccc1	-26	nt	nt	nt	3	4141	nt
COc1ccc(NC(=O)Nc2cc(C(=O)O)ccc2N2CC3CC(C2)c2cccc(=O)n2C3)c(OC)c1 (stereo unspecified)	-1	0	2	2.0	0	5280	-1
Cc1cccc(NC(=O)C(=O)N/N=C/c2ccncc2)c1	-7	nt	nt	nt	4	1996	nt
COC(=O)C1CCN(C(=O)CSc2ccccc2)CC1	-3	13	14	3.4	-2	1997	9
O=C1c2ccccc2C(=O)N1Nc1ccccc1	-52	nt	nt	nt	-1	2776	nt
NC(=O)C1=C[C@H](c2coc3ccccc3c2=O)C[C@H](OCCCCO)O1	-34	nt	nt	nt	-12	3315	nt
COCC(C)n1c(SCC(=O)Nc2sccc2C(N)=O)nc2ccccc2c1=O (stereo unspecified)	-3	4	9	6.6	nt	3778	-6
COc1ccc(CCNC(=O)COC(=O)c2ccco2)cc1OC	-13	19	14	8.2	3	3822	-5
O=C(N/N=C/c1ccc(Sc2ccccn2)o1)c1cc2ccccc2cc1O	-9	nt	nt	nt	-17	10726	nt
CN(C)Cc1nc2ccccc2c(=O)n1CC(=O)Nc1cccc(S(=O)(=O)N2CCOCC2)c1	-8	-1	0	3.0	-2	2152	-2
Cc1ccc2c(c1)N(CCC(=O)N1CCC3(CC1)OCCO3)C(=O)C(C)O2 (stereo unspecified)	-7	6	-3	-3.0	nt	6156	-9
Cc1nn2c(CN(C(=O)COc3ccccc3)c3ccccc3)nnc2c2ccccc12	-16	1	-5	0.8	-2	2186	-4
Cc1cnc(NC(=O)c2ccncc2)s1	29	-7	-9	11	-5	3242	6
c1ccc2c(c1)oc1c(Nc3ccc4c(c3)OCO4)ncnc12	-101	2	4	5.7	5	2438	-19
C=CCn1c(SCC(N)=O)nnc1-c1cccc(Br)c1	1	nt	nt	3.5	5	2198	10
COc1ccc(S(=O)(=O)N(C)Cc2cccs2)cc1Br	-17	9	16	6.2	-2	3413	5

# Continued:
structure	PrP UTR inh	Mtb hypoxia inh growth	Mtb hypoxia inh	Sa RN4220 lethal	BJeLR lethal	Bead autofluor	ugtP null kill
COc1ccc(Br)cc1S(=O)(=O)n1nc(C)cc1C	-27	8	17	-0.1	-18	3697	11
COc1ccc(CC(=O)Nc2nc(-c3ccc(F)c(F)c3)cs2)cc1	-18	-6	13	-11	4	5311	75
Cc1ccc(S(=O)(=O)Oc2ccccc2/C=N/NC(=O)c2nn(C)cc2[N+](=O)[O-])cc1	-18	nt	nt	nt	17	8518	nt
O=C1CCCc2c1cc(C(=O)NCc1ccco1)c(=O)n2-c1ccccc1	-12	6	-1	4.3	-9	9588	-5
COC(=O)c1ccccc1NC(=O)c1noc2c1CC(C(C)(C)C)CC2 (stereo unspecified)	1	1	-5	1.8	-16	10969	10
C=CCN1C(=O)CC(C(=O)NC)SC1=Nc1ccc(C(=O)OCC)cc1 (stereo unspecified)	-21	11	14	-14	0	2996	0
O=C(CN1C(=O)NC2(CCCCC2)C1=O)N1CCOCC1	0	-7	-5	-6.9	nt	4437	-2
CCOC(=O)c1c(C)n(O)c2ccc(Cl)cc2c1=O	-1	-1	2	2.7	0	16178*	6
c1nc(NCCN2CCOCC2)c2c3c(sc2n1)CCCCC3	-9	-2	8	0.0	12	8999	5
COc1cccc(C2CC(=O)Nc3cc4c(cc32)CCC4)c1 (stereo unspecified)	-21	-3	7	4.0	13	3269	-5
COc1ccccc1N1CCN(C2CCN(C(=O)c3cccs3)CC2)CC1	-8	nt	nt	0.8	6	4445	3
CS(=O)(=O)Oc1ccc(/C=N/NC(=O)c2ccncc2)cc1	-3	nt	nt	nt	3	2577	nt
COc1cccc(NC(=O)CSc2nc3ccccc3cc2Cc2ccccc2)c1	-2	7	13	-5.1	-1	13941	14
CCCn1c(N2CCN(CC(=O)c3c(C)n(C)c4ccccc34)CC2)nc2c1c(=O)[nH]c(=O)n2C	8	nt	nt	0.9	1	2209	-3
CC(C)CC(O)(CC(C)C)C(=O)NNc1ccccc1	-40	2	-2	3.7	0	3071	-4
O=C(Nc1ccccc1Sc1ccccc1)c1ccccc1	-8	1	2	-1.5	2	3228	49
COc1ccc(S(=O)(=O)N(CC(=O)NCc2cccnc2)Cc2ccccc2)cc1	-6	-6	-2	7.7	-3	3367	17
Nc1cccc(CP(=O)(c2ccccc2)c2ccccc2)c1	-19	9	-3	2.1	nt	3929	1
COc1cc(CO)cc(Br)c1OCC(=O)Nc1cccc2ccccc12	-7	-4	-4	7.2	1	4854	7
COc1ccc(OC)c(-n2nnnc2SCC(=O)Nc2ccccc2N2CCOCC2)c1	1	-4	-3	1.7	-12	1950	1
O=C(NCc1cccnc1)C1CCN(c2ccc(S(=O)(=O)N3CCOCC3)cc2Cl)CC1	-27	10	11	3.5	3	4100	-1
CN(C)S(=O)(=O)c1cc(C(=O)Nc2ccn(C)n2)c(Cl)cc1Cl	-23	-3	8	-2.6	nt	6264	13
C=CCn1c(SCc2ccccc2C#N)nnc1-c1cc(Br)ccc1O	-15	13	10	5.0	3	11323	-2
COc1ccc(N2C(=O)C3CCCN3C2c2cccc(C)c2)cc1Cl (stereo unspecified)	-5	5	13	2.2	-5	4149	8
O=C(CSc1nnnn1-c1ccccc1)N1CCc2ccccc2C1	-2	7	5	2.3	nt	22363*	-4

# (further entries)
structure	PrP UTR inh	Mtb hypoxia inh growth	Mtb hypoxia inh	Sa RN4220 lethal	BJeLR lethal	Bead autofluor	ugtP null kill
O=C(COc1ccccc1Cl)Nc1ccccc1C(=O)Nc1cccc(C(=O)O)c1	-14	0	6	2.0	0	5910	0
O=C(N/N=C/c1ccc(OCc2ccccc2)cc1)c1cccs1	-49	nt	nt	nt	4	20999*	nt
Fc1cccc(/C=N/Nc2ccc3ccccc3n2)c1	11	nt	nt	nt	10	3793	nt
N#CC1=C(N)Oc2n[nH]c(-c3cccs3)c2C1c1ccccc1C(=O)O (stereo unspecified)	-7	4	4	-7.1	-3	4129	24
Cc1cc(C(=O)NN=Cc2cc(C(C)(C)C)c(O)c(C(C)(C)C)c2)n[nH]1	nt	12	1	4.2	nt	nt	-11
CC(C)Cn1c(-c2ccc(F)cc2)n[nH]c1=S	-20	11	9	-12	-5	4165	-11
O=C(/C=C/NCC(=O)c1ccccc1)c1ccc(Br)cc1	-19	4	1	3.2	-2	2498	12
CCOC(=O)C1CCN(C(=O)C(CCSC)NC(=O)c2ccccc2OC)CC1 (stereo unspecified)	nt	-1	3	0.3	nt	nt	2
O=S(=O)(NCC1CCCO1)c1ccc(Oc2ccccc2)cc1 (stereo unspecified)	-10	3	3	7.4	-8	21154*	5
C/C(=N\NC(=O)CN(c1ccc(C)cc1)S(C)(=O)=O)c1cccs1	-13	nt	nt	nt	8	2540	nt
COC(=O)c1ccc(-c2ccc(C=NN3C(=O)C4C5C=CC(C6CC56)C4C3=O)o2)cc1 (stereo unspecified)	nt	5	-7	8.5	nt	nt	-7
CN(C)N=Nc1ccc(-c2cn(Cc3ccccc3)cn2)cc1	-49	-2	3	-0.2	-6	3791	-5
O=C(CCc1nc2ccccc2c(=O)[nH]1)N1CCN(c2ccc(F)cc2)CC1	-17	3	0	4.0	3	1950	5
CCCc1nnc(NC(=O)CCC(=O)NCc2ccc(OC)cc2)s1	-2	3	14	2.5	-4	4081	-4
COc1ccc(Br)cc1CN1CCCC(C(=O)N2CCCCCC2)C1 (stereo unspecified)	-22	nt	nt	-0.3	8	2382	0
Cc1nc2ccc(C(=O)OCc3ccccc3Br)cc2nc1C	-46	-7	2	3.6	1	5996	4
NC(=O)C1=C[C@@H](c2ccccc2)C[C@@H](OCCCCO)O1	-4	nt	nt	nt	-7	2873	nt
O=C(NCc1ccc(F)cc1)C1CCN(S(=O)(=O)c2cccnc2)CC1	-37	-6	8	-1.8	-8	3979	10
COc1c(Br)cc2c(C)c(C(=O)O)oc2c1Br	-8	2	12	7.4	-4	2480	24
Fc1ccc(-c2csc(-c3ccc(C4SCCS4)cc3)n2)cc1F	-32	4	1	3.3	-13	5963	13
CCOC(=O)Cn1c(-c2ccccn2)nc2ccccc21	-12	6	6	3.0	5	2364	8
O=C(c1cc(-c2ccccc2)on1)N1CCN(c2ccccc2)CC1	-8	-4	1	-0.2	1	5656	1
CC(C)C(=O)Nc1cc(S(=O)(=O)N2CCOCC2)ccc1N1CCCCC1	-27	0	7	2.4	nt	4227	4
COc1ccc(C2CC(=O)c3c(O)cc(O)cc3O2)c(CC=C(C)C)c1OC (stereo unspecified)	-9	nt	nt	0.7	-5	5322	19
OCc1ccccc1N=Cc1cccnc1	-33	-1	13	0.3	-9	3564	5

# Results in PrP UTR inh and BJeLR lethal, for some of the entries so far:
Structure,PrP UTR inh,BJeLR lethal
CCOC(=O)Cn1c(-c2ccccn2)nc2ccccc21,-12,5
CCCc1nnc(NC(=O)CCC(=O)NCc2ccc(OC)cc2)s1,-2,-4

# Next records.
structure	PrP UTR inh	Mtb hypoxia inh growth	Mtb hypoxia inh	Sa RN4220 lethal	BJeLR lethal	Bead autofluor	ugtP null kill
CC(=O)c1sc(NN=Cc2cccc(O)c2)nc1C	nt	-6	-2	6.0	nt	nt	-13
COc1ccc2cc(C(N)=O)c(=Nc3ccc(C)cc3)oc2c1	-12	5	4	5.5	0	4384	-12
O=C(Nc1ccccc1)NC1(C(=O)N2CCN(C(=O)c3ccco3)CC2)CCCCC1	-17	1	1	-0.5	-3	4299	4
COc1ccc(-c2csc(NC(=O)c3cc(C)on3)c2C#N)cc1OC	-15	5	-7	-2.5	6	10848	-12
O=C1NC(=Nc2ccccc2)/C(=C/c2ccco2)S1	-14	11	2	2.8	-1	2245	1
CCOC(=O)C1CCCN(S(=O)(=O)c2cc(Br)cc3c2N(C(C)=O)CC3)C1 (stereo unspecified)	-11	-6	-6	-2.9	8	4286	-5
CCNC(=S)N1CCN(CCN=CC2=C(O)CC(C)(C)CC2=O)CC1	nt	2	9	2.6	10	4571	-3
Cc1ccc(S(=O)(=O)C2(C(=O)Nc3nccs3)CC2)cc1	-11	5	1	4.2	nt	5018	-4
CC(=NNC(=O)c1cc2c(s1)CCC(C)C2)c1ccncc1 (stereo unspecified)	nt	-9	6	16	nt	nt	-1
CN1CCN(C(=O)/C(=C/c2cn(C)c3ccccc23)NC(=O)c2ccccc2)CC1	-14	-7	2	1.0	-2	5430	0
CCOC(=O)c1sc(NC(=O)C2CCC2)cc1C	-47	6	8	1.2	-7	2508	8
C=CCNC(=S)NN=C(C)c1cccnc1	nt	8	13	3.0	nt	nt	6
COc1ccc(-c2cc3ccc(OCC(C)=O)cc3oc2=O)cc1	-58	nt	nt	nt	0	5055	nt
CCn1cc(C(=O)N2CCCC(CO)(Cc3ccccc3C)C2)cn1 (stereo unspecified)	-2	5	8	0.4	13	5667	2
Cc1cc(=O)oc2cc(OCC(=O)N3CCN(c4ccc(F)cc4)CC3)c(Cl)cc12	-12	-6	1	2.6	-6	5312	3

# Source: PubChem
